Compound activity deposited in PubChem by National Center for Advancing Translational Sciences (NCATS).
miR-21 reporter: raises the signal of a miR-21 reporter | HeLa miR-21 FLuc reporter, luciferase, 48 h | Potency, µM (top dose mostly 38.3 µM), for the others: top-dose reporter change, positive = more light | 340,000 tested, under 10 active | AID 2288; active = well fitted rising curve with a large enough effect; inconclusive = small, poorly fitted or top-dose-only effect; inactive = no such curve, though single readings can be large or run the other way;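 further: % of control where 0% means no effect; miR-21 action dims this reporter so a rising signal means less miR-21 action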
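Compounds were titrated across several concentrations (up to approximately 40 uM) and incubated 48 hours with HeLa miR-21-FLuc reporter cells (miR-21 target sequence downstream of FLuc, endogenous miR-21). Readout was firefly luciferase luminescence after lytic detection reagent.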
Rango release inh: inhibition of RanGTP-driven Rango-importin beta dissociation. Biochemical FRET Rango-importin beta, RanGTP-induced dissociation. Potency, µM (doses to about 46.1 µM), without a hit: at the top dose activity change, negative = inhibition. actives 0.071% (n = 340,000); active means falling FRET ratio curve, often poorly fitted, with flat reads before Ran was added; inconclusive means other falling curves, or compound fluorescence or quenching; inactive means flat or rising ratio curve;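 further: potency means the concentration at half of the fitted maximal effect; % of control where 0% means no effect; nearly all actives have a fitted effect of over 45% in size; -100% = wells without RanGTP and RCC1; the record marks most hits as doubtful in a second field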
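Rango FRET biosensor (snurportin-1 IBB flanked by N-terminal EYFP and C-terminal CFP10) at 0.1 uM, with 0.25 uM importin beta in PBS, 1mM DTT, 0.02% Tween-20, 0.1% BSA. 0.6 uM Ran, 2mM GTP and 0.2 uM RCC1 were then added for 45 min at room temperature. Inhibition read as loss of FRET rise.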
GLA inh pH 4.5: blocks human alpha-galactosidase A at pH 4.5; purified enzyme, 4-MU-alpha-Gal fluorescence, pH 4.5; AID 1467; 230,000 tested, under 10 active; activity change, negative = inhibition, % at 105 µM; P06280; inconclusive = small, poorly fitted or top-dose-only inhibition, or a rising curve; inactive = flat fitted curve, though single readings scatter; no compound was filed as active;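 further: 0% = full activity with enzyme and -100% = basal without enzyme; dose as in the result columns while the protocol names 77 µM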
Target sequence (P06280 whole entry, looked up): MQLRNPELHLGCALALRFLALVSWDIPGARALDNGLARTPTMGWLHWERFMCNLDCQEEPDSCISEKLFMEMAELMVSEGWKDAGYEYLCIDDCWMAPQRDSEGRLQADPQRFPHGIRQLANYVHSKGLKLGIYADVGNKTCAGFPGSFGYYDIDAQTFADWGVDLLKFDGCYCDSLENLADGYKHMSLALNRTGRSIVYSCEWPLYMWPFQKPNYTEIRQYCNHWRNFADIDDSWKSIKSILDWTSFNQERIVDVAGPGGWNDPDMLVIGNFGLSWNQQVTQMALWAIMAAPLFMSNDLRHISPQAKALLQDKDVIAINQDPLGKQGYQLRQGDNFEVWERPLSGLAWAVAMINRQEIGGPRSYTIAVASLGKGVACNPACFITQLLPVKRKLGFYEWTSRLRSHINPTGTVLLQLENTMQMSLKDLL
Rango-impB inh: prevents formation of the Rango-importin beta complex | Q14974 | Rango CFP/YFP FRET sensor + importin beta, 45 min | Potency, µM (titrated, usually from 92.2 µM), without a hit: top-dose inhibition of complex formation | actives 0.031% (n = 340,000) | AID 540263; active = rising FRET ratio curve, often small or poorly fitted; inconclusive = mostly compound fluorescence or quenching in the first reads; inactive = flat curves in all reads;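 further: potency means the concentration at half of the fitted maximal effect; 0% = DMSO wells and 100% = buffer wells lacking importin beta; nearly all actives have a fitted effect of over 15% in size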
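FRET biosensor Rango (snurportin 1 IBB between N-terminal EYFP and C-terminal Cerulean), 50 nM in PBS/1 mM DTT/0.02% Tween-20/0.1% BSA, preincubated 5 min RT with compound; 0.125 microM importin beta added, 45 min RT, CFP/YFP FRET ratio read.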
* = called active by the depositor; ? = inconclusive; · = no result given; & = joins results of further samples; [ ] = remark or other dose.

Compound,miR-21 reporter,Rango release inh,GLA inh pH 4.5,Rango-impB inh
COc1ccccc1-c1cc(N)n(S(=O)(=O)c2ccc(F)c(C)c2)n1,0%,5%,2,-1.8%
Cc1ccc(-c2nnn(CC(=O)N(CC(=O)NC3CCCC3)c3ccc(F)c(Cl)c3)n2)o1,-10%,7%,0,-0.1%
COc1ccc(S(=O)(=O)N2CCSCC2)cc1,-4%,4%,·,0.5%
Cc1cc(C)n(C(N)=NC(=O)c2ccc([N+](=O)[O-])cc2)n1,-45%,12%,-8,2.4%
Cc1ccc(NC(=O)c2ccccc2SCC(=O)N2CCCC2)cc1S(=O)(=O)N(C)C,-14%,10%,·,2.3%
Nc1nc(/C=C/c2cccnc2)nc(-c2ccccc2O)n1,15%,1%,2[21.1 µM],-0.6%
O=C(NCCc1csc(-c2ccc(C(F)(F)F)cc2)n1)c1cccs1,8%,38%,-21,0.6%
Cc1ccc(-n2nnnc2SCC(=O)c2cc(C)n(-c3cc(C)on3)c2C)cc1,-2%,20%,0,2.8%
CC(C)CNc1nc(Oc2ccc(=O)n(C)n2)nc(N2CCOCC2)n1,-4%,-9%,2,0.0%
CCCN1C(=O)/C(=C/c2ccc(C)s2)SC1=Nc1ccc(OC)cc1,-7%,-8%,-9,0.9%
CCOC(=O)c1c(C(C)(C)C)oc2ccc(O)cc12,-1%,13%,12,0.8%
Cc1c(C(=O)N(CCC#N)c2ccccc2)sc2nc3n(c(=O)c12)CCCC3,4%,39%,·,?
CC(C)c1nnc2n1N=C(c1ccc(Cl)cc1)CS2,-3%,-6%,·,7.4%
COc1ccc(Cl)cc1S(=O)(=O)NC(C)C(=O)NCc1cccnc1 (centres undefined),3%,-9%,·,3.9%
CC(=O)NC(=S)Nc1ccc([N+](=O)[O-])cc1C,-2%,1%,1,-1.2%
Cc1cc(C)nc(NC(=O)c2ccc(Cl)c(Cl)c2)n1,-8%,12%,-5,-1.6%
CC(C)CNC(=O)CCCSc1nc2ccccc2[nH]1,-11%,-2%,-7,-3.5%
COc1ccc(NC(=O)Cn2c(=O)n(CC(=O)NCc3ccco3)c(=O)c3ccccc32)cc1OC,1%,-1%,-6,-0.2%
COc1cccc(CNc2ccc3c(c2)nc(C)n3C)c1OC,-45%,1%,·,1.0%
Cc1ccc(S(=O)(=O)NCC(=O)OC(C)C(=O)Nc2ncc(Cl)cc2Cl)cc1 (centres undefined),-1%,0%,1,-2.6%
Clc1ccc(-c2nn3c(-c4ccncc4)nnc3s2)c(Cl)c1,2%,·,16,·
O=C(COC(=O)c1c[nH]c(=O)[nH]c1=O)Nc1ccccc1,2%,-7%,1,-0.4%
CCCNC(=O)Cc1c(C)oc2ccccc12,-2%,1%,-3,-1.0%
CCCc1cc2c(cc1NC(=O)Cc1ccccc1)OCO2,·,1%,·,2.5%
O=C(Nc1ccc(-c2nc3ncccc3o2)cc1)c1ccc([N+](=O)[O-])o1,-2%,7%,·,-0.7%
Cc1ccc(C(=O)OCC(=O)Nc2c(C)n(C)n(-c3ccccc3)c2=O)cc1[N+](=O)[O-],-1%,-25%,-2,-0.3%
Cc1nnsc1C(=O)NC1CCCc2c1cnn2-c1ccc(C(C)(C)C)cc1 (centres undefined),23%,39%,·,0.4%
Cc1ccc(C(=O)NCc2ccc3c(c2)OCO3)cc1Cl,-31%,0%,·,-2.4%
Cn1c(=O)cc(OCCCC(=O)N2CCN(Cc3ccc4c(c3)OCO4)CC2)c2ccccc21,-4%,-8%,2,-0.5%
CC(=O)Nc1ccc(N/C=C/C(=O)c2ccccc2)cc1,-46%,?,·,?
Cc1cc(C)cc(NS(=O)(=O)c2c(C(=O)N3CCCCCC3)c(C)n(C)c2C)c1,-2%,-1%,·,?
Cc1cc(C(=O)N/N=C/c2ccco2)c2ccccc2n1,16%,27%,-13,0.3%
CCn1ncc(CNC(=O)c2cccc([N+](=O)[O-])c2)c1C,-3%,·,4,·
CC(C)CN(C(=O)CSc1nc(N)cc(N)n1)C1CCS(=O)(=O)C1 (centres undefined),·,14%,·,2.7%
CCn1c(=O)c2cc(C(=O)NCCCOC)sc2c2ccccc21,12%&17%,17%,·,1.3%
CC(=O)C1=C(c2cccc([N+](=O)[O-])c2)N(C(C)=O)n2c(C)nnc2S1,29%,13%,7,-2.7%
COC(=O)c1[nH]c2cccc(C)c2c1NC(=O)CN1CCCc2ccccc21,-9%,-12%,-5,-0.8%
Cc1c(Br)c(=O)[nH]c(=O)n1COCc1ccccc1,-4%,5%,-3,3.7%
COc1ccc2nc3oc(C(=O)N4CCC(C(N)=O)CC4)cc3cc2c1,-30%,-8%,3,-4.0%
CCC1(C)Cc2c(sc3nc(SCC(=O)c4ccccc4)[nH]c(=O)c23)CO1 (centres undefined),1%,16%,2,1.0%
COC(=O)[C@@]1(C)[C@H]2C(=O)N(C)C(=O)[C@H]2[C@H]2CN=C(SCc3ccc(C#N)cc3)N21,·,-12%,·,2.0%
CCOc1ccc(NC(=O)CN2C(=O)COc3ccc(Cl)cc32)cc1,5%,-2%,4,-1.7%
O=C(CCC1CCCN(C(=O)c2cc(C3CC3)[nH]n2)C1)N1CCN(c2ccccn2)CC1 (centres undefined),18%,-1%,5,-0.9%
Nc1ccc(C(=O)OCc2nc3ccccc3[nH]2)cc1,-17%,4%,-3,5.9%
CC1=C(C(=O)OCc2ccccc2)C(c2ccc(Cl)cc2Cl)NC(=O)N1CCCC(=O)O (centres undefined),-32%,10%,9,1.1%
O=C(Nc1cccc(C(=O)N2CCCCC2)c1)C1CCCC1,·,-10%,·,-0.6%
COCCn1c(SCC(=O)NC2CCCC(C)C2C)nc2ccccc2c1=O (centres undefined),·,8%,·,-1.1%
Cc1cc(C)nc(NC(=O)NC(=O)c2ccccc2)n1,2%,-6%,·,-2.1%
COCCNCC(=O)C12CC3CC(CC(C3)C1)C2,-3%,0%,-1,4.7%
Nc1ccccc1Oc1ccc2ccccc2c1,-14%,17%,3,0.0%
Cc1nn2c(NCc3ccccn3)cc(C(C)(C)C)nc2c1-c1ccccc1,1%,6%,-5,-0.5%
O=C1C=C(c2ccccc2C(F)(F)F)C[C@@H](c2ccc3c(c2)OCO3)C1,·,15%,·,4.4%
CCCN(Cc1nnc(-c2ccccc2Cl)o1)C(=O)c1ccc(C)c(S(=O)(=O)N2CCOCC2)c1,·,-8%,·,1.5%
O=C(COC(=O)CCC(=O)c1ccc(F)cc1)NCCc1ccccc1,·,0%,·,-1.6%
Nc1ccc(S(=O)(=O)c2cccc(N)c2)cc1,-4%,-7%,-1,5.8%
Cn1c(=O)c2c3c(sc2n2c(SCC(N)=O)nnc12)CC(C(C)(C)C)CC3 (centres undefined),-2%,-6%,-9,0.0%
CC(C)CC(=O)Nc1nnc(S(=O)(=O)Nc2ccccc2)s1,-16%,1%,·,0.5%
O=C(C1COc2ccccc2O1)N1CCN(c2ccccc2F)CC1 (centres undefined),-18%,-14%,3,2.7%
COc1ccc(C2C(C#N)=C(N)OC3=C2C(=O)CC(C)(C)C3)cc1Cn1nc(C)c([N+](=O)[O-])c1C (centres undefined),-11%,9%,-6,-1.5%
CCC(=O)N1CCN(c2ccc(NC(=O)c3cc4ccccc4o3)cc2)CC1,-3%,5%,-1,1.4%

Next structures follow.
Compound,miR-21 reporter,Rango release inh,GLA inh pH 4.5,Rango-impB inh
CCCOC(=O)Cc1n[nH]c(=O)[nH]c1=O,-1%,11%,2,0.3%
O=C(Cc1ccc(Cl)cc1)N/N=C1\CCCc2ccccc21,0%,-3%,4,4.3%
Cn1ncc(Cl)c1C(=O)NNC(=O)Nc1cccc2ccccc12,-2%,-7%,·,2.5%
COc1ccc(CNC(=O)/C=C/c2ccc(S(=O)(=O)NCc3ccco3)cc2)cc1OC,-4%,-18%,1,?
COc1cc2cc(C(=O)O)n(C)c2c(OC)c1OC,4%,17%,·,3.3%
O=C1NC(Cc2ccccc2)C(=O)Nc2ccc(Br)cc21 (centres undefined),7%,9%,·,2.6%
O=C(CSc1ncnc2sc3c(c12)CCCC3)N1CCC(c2noc3ccc(F)cc23)CC1,1%,-7%,2,-2.1%
COc1ccc2c(C)c(C(=O)N3CC[C@@H](N4CCC(O)CC4)[C@H](O)C3)oc2c1,-5%,19%,·,0.2%
CCn1cc([N+](=O)[O-])c(C(=O)Nc2c(C)nn(Cc3c(F)c(F)c(F)c(F)c3F)c2C)n1,1%,1%,6,-1.5%
C=CCOc1ccc2ccccc2c1/C=N/O,-18%,-8%,-1,-0.5%
CN(C)S(=O)(=O)c1cccc(C(=O)OCC(=O)c2ccc3c(c2)NC(=O)CO3)c1,6%,-3%,-6,-0.8%
CC(C)(Oc1ccc(Cl)cc1)C(=O)NC1CCN(Cc2ccccc2)CC1,·,-15%,·,-5.4%
COc1ccc(-c2cc(C(=O)N3CC4(C)CC3CC(C)(C)C4)no2)cc1 (centres undefined),0%,1%,-3,-1.5%
C/C(=N\NS(=O)(=O)c1cccc([N+](=O)[O-])c1)c1cc2ccccc2o1,-7%,?,-2,0.4%
CCc1ccc2c(CC(=O)NNC(=O)c3ccncc3)coc2c1,·,-14%,·,-1.5%
CCOC(=O)c1cccc(NC(=O)CSc2nnc(-c3cccnc3)n2CC)c1,-2%,6%,5,4.2%
Cc1ccc(N(C(=O)c2snc(C(N)=O)c2N)C(C(=O)NCC2CCCO2)c2ccc(C)o2)c(C)c1 (centres undefined),18%,-3%,·,-4.9%
Cc1ccccc1N1CCN(C(=S)c2ccc(-c3ccc([N+](=O)[O-])cc3)o2)CC1,-5%,15%,-3,4.7%
CCn1c(Cc2ccccc2)nnc1SCC(=O)Nc1ccc2c(c1)OCCO2,-2%,8%,-8,2.7%
CCOc1ccc(C(=O)NCC(=O)NCCCSc2ccccc2)cc1OCC,-6%,-10%,·,5.8%
c1ccc(-c2nc3c4ccccc4ccn3c2CN2CCOCC2)cc1,-45%,34%,-5,-2.8%
Nc1ccc(C(=O)OCC(=O)N2CCc3ccccc3C2)cc1[N+](=O)[O-],-18%,-7%,21,0.1%
O=C(N/N=C/c1cccc(O)c1)c1ccc(NC(=O)C2CCCCC2)cc1,0%,17%,·,1.4%
Cc1ccc(CCNS(=O)(=O)c2ccc3c(c2)N(C)CCO3)cc1,-3%,-1%,·,0.6%
O=[N+]([O-])c1ccc(Nc2ccc(F)cc2)nc1,-19%,-14%,-8,0.5%
O=C(NCC1CC1)c1cccc2c1C(=O)c1ccc(N3CCCC3)cc1S2(=O)=O,·,?,·,?
Cc1nc2ccc(Cc3ccc4nc(C)[nH]c4c3)cc2[nH]1,-7%,0%,-2,0.6%
COc1ccc(/C=N/NC(=O)c2snnc2C)c(OC)c1OC,-3%,-9%,-14,6.7%
CCCCCNCC(=O)Nc1cccc(C(=O)Nc2cccc(C(F)(F)F)c2)c1,-1%,19%,-11,2.5%
COc1ccc(N2CCN(C(=O)CN(C3CCCCC3)S(C)(=O)=O)CC2)cc1,0%,-11%,0,0.9%
CN1C(C(=O)NCCc2cccs2)CC2Cn3c(nc4cc5ccccc5cc43)C21 (centres undefined),-7%,-1%,-9,-1.6%
COC(=O)CN1C(=O)[C@H]2[C@@H](/C=C/c3ccccc3)N3C(=O)CN(CC4CC4)C(=O)[C@@]3(Cc3ccccc3)[C@H]2C1=O,3%,-19%,·,-1.2%

2 compounds drawn at random from the list so far, as already listed:
Compound,miR-21 reporter,Rango release inh,GLA inh pH 4.5,Rango-impB inh
CN1C(C(=O)NCCc2cccs2)CC2Cn3c(nc4cc5ccccc5cc43)C21 (centres undefined),-7%,-1%,-9,-1.6%
O=[N+]([O-])c1ccc(Nc2ccc(F)cc2)nc1,-19%,-14%,-8,0.5%

This is a subset; rates above refer to the full screens.
